Screening data as filed in PubChem BioAssay.
supercomplex z = modulators of mitochondrial supercomplex assembly, cell-based, luminescence, Hoechst nuclei count (AID 1645838); z-score at 11 µM unless noted; 5% of 2,000 active; Cells, luminescence/Hoechst cell count ratio, supercomplex reporter; active compounds read high;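 active = mean z-score of two plates above 1.96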;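 note: control cybrid cells; higher means more mitochondrial supercomplex formation; U2OS-based cells read after two days; 0 = mean of sample wells on the plate; doses worked out from stocks diluted about 900-fold with the highest of each compound shown; many of its hits are not listed in these tables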
supercomplex z cell count = further read-out of supercomplex z, marked with its call; cell count; measured here: cell number, Hoechst nuclei count;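 nuclei per well as mean of two plates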
* hit, by the source's call; i = inactive; · = not tested or not shown.

Structure | supercomplex z cell count | supercomplex z
O=C1C(=O)c2cccc3cccc1c23 | · | i
O=c1oc2ccccc2c(O)c1Cc1c(O)c2ccccc2oc1=O | 4514 | 0.077
CS(=O)CCCCN=C=S (stereo not given) | · | i
CC1CNCCc2ccc(Cl)cc21 (stereo not given) | 5725 | -0.087
CCCCCOc1ccc(C(=O)c2cccc3ccccc23)c2ccccc12 | 6835 | 0.13
COc1ccc2c3c([nH]c2c1)C(CC(C)C)N1C(=O)C(CCC(=O)OC(C)(C)C)NC(=O)C1C3 (stereo not given) | 6851 | -0.35
CN1CCN(C(=O)OC2c3nccnc3C(=O)N2c2ccc(Cl)cn2)CC1 (stereo not given) | 5456 | -0.86

Exported with values under each structure: 3 of the compounds above
Below each SMILES – supercomplex z cell count	supercomplex z
O=c1oc2ccccc2c(O)c1Cc1c(O)c2ccccc2oc1=O
    4514	0.077
CS(=O)CCCCN=C=S (stereo not given)
    ·	i
CC1CNCCc2ccc(Cl)cc21 (stereo not given)
    5725	-0.087

A portion of the library (hit frequency here may not be typical).
